# Bioassay records as filed in PubChem.
# Six1-Eya2 inh: blocks human Six1 binding to Eya2; Q15475+O00167; AlphaScreen GST-Six1/His-Eya2 binding, biochemical; hits give low values; control for the full effect not named in the record; activity change, % (no concentration beside the values); actives 0.56% (n = 360,000); in the data active = activity change below about -65%; inconclusive = about -30% to -65%; inactive = above about -30%; note: % is set by controls: 0 for no effect and ±100 for the full control effect; compound concentration not given in the record
# Target sequence (O00167 whole entry, looked up): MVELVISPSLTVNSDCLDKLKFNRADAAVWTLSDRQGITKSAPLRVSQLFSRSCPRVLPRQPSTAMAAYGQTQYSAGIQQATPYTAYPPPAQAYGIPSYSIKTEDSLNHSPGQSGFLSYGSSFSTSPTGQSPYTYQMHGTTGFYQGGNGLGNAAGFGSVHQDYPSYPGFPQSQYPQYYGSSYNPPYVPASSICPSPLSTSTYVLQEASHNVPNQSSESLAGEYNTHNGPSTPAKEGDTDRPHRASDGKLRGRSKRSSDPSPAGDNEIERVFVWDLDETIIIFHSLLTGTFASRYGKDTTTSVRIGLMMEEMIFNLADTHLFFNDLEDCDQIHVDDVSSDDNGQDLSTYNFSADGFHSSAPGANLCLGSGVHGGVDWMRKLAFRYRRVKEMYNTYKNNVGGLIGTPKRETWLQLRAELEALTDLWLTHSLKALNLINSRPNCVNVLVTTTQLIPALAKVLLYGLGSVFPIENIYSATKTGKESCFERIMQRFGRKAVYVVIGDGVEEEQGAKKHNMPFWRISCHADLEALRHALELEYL
# Target sequence (Q15475 whole entry, looked up): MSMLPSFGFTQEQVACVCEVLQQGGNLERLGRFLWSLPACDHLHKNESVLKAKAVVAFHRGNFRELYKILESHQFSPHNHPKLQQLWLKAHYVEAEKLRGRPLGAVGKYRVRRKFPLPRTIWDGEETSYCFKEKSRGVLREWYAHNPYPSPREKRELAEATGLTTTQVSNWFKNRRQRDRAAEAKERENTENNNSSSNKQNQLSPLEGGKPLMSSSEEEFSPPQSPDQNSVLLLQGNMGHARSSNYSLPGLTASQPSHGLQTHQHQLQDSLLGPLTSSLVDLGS
#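 Compounds are tested against tagged Six1 and Eya2 proteins bridged by glutathione donor and nickel acceptor beads; after a one-hour incubation at 37 °C without light, AlphaScreen emission is recorded.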
# PINK1 expr mod: PINK1 expression modulation; PINK1 immunofluorescence, high-content cytometry, 24 h; Potency, µM (doses to about 76.6 µM), inactives show at the highest dose activation (PINK1 increase), actives largely listed as activators; actives 0.2% (n = 410,000); active = well fitted activation curve with a large enough effect; inconclusive = small, poorly fitted or top-dose-only effect; inactive = flat fitted curve, though single readings scatter; cell line not stated here;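 note: potency is the fitted concentration of half-maximal effect; % of control where 0% means no effect; nearly all actives have a fitted effect of over 65% in size; a mitochondrial uncoupler was the plate control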
#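 Compound titrations (5 concentrations, 24 h) on a stable cell line; DMSO and CCCP controls. Endpoint: fixed-cell PINK1 immunofluorescence with mitochondrial, cell and nuclear markers, scanned by microplate cytometer.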
# CtBP-E1A inh: blocks the CtBP interaction with E1A. activity change, % (no concentration beside the values). AlphaScreen GST-E1A/His-CtBP binding, 1536-well; hits give low values; control for the full effect not named in the record. actives 0.49% (n = 340,000); in the data active means activity change below about -65%; inconclusive means about -30% to -65%; inactive means above about -30%; note: % is set by controls: 0 for no effect and ±100 for the full control effect; compound concentration not given in the record
#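 GST-E1A and His-tagged CtBP (125 nM each as 5X stock) were preincubated with pin-transferred compound for 2 h at 37 °C in the dark, then glutathione donor and nickel acceptor beads were added for 1 h before AlphaScreen reading.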
# TRPML1 agonist: agonists of human TRPML1 channel | Q9GZU1 | TRPML1-expressing cells, Ca2+ dye fluorescence, FDSS; host cell line not named in the record; reference of the full effect not given here | activation, % (test concentration not listed) | actives 0.12% (n = 410,000) | AID 624414; in the data active = activation above about 50%; inconclusive = about 30% to 50%; inactive = below about 30%; note: 0% is about no effect; the text of the record puts the active cut at 80%
#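 In this qHTS format, compounds were pin-transferred onto Ca8-dye-loaded TRPML1-DL cells induced with Tet overnight, and intracellular Ca2+ fluorescence was recorded kinetically for 110 s after a 10 s baseline. A subsequent 4uM final 54-4 (EC80) addition followed by a second 110 s read served as the antagonist phase.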
# TRPML1 blocker: inhibitors of human TRPML1 channel. actives 0.02% (n = 390,000). TRPML1-inducible cells, Ca2+ dye fluorescence, FDSS; hits give low values; inhibition of EC80 agonist-evoked calcium signal. activity change, negative = inhibition, % (no concentration beside the values). Q9GZU1; in the data active means activity change below about -50%; inconclusive means about -30% to -50%; inactive means above about -30%;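 note: stimulus is agonist 54-4 at its EC80 concentration; % is set by controls: 0 for no effect and ±100 for the full control effect; compound concentration not given in the record; the text of the record puts the active cut at -80%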
#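 Tet-induced TRPML1-DL cells loaded with Ca8 no-wash calcium dye were read kinetically on FDSS. Compound addition was followed by EC80 agonist 54-4 (4 uM final); inhibition was read over 110 s.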
# D2 ag: activates the human D2 dopamine receptor; actives 0.084% (n = 360,000); activation, % (test concentration not listed); DiscoveRx PathHunter D2 beta-arrestin, luminescence, 90 min; 100% = 57 uM dopamine signal; in the data active = activation above about 40%; inconclusive = about 15% to 40%; inactive = below about 15%; note: compound concentration not given in the record; the text of the record calls up to 30% inactive
#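 DiscoveRx PathHunter D2 beta-arrestin cells (2,100/well) attached overnight, then compound-stimulated 90 min at 37 C in HBSS/10 mM HEPES/0.1% Tween-20 buffer; beta-galactosidase complementation read by luminescence after 1 h at ambient temperature. Dopamine 57 uM final (EC100) as control.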
# * hit, by the source's call; ? = inconclusive; · = no result given; [ ] = another dose, or the depositor's remark.
# The opening 3 records, to show the layout:
canonical_smiles	Six1-Eya2 inh	PINK1 expr mod	CtBP-E1A inh	TRPML1 agonist	TRPML1 blocker	D2 ag
CC(C)[C@@H]1Cc2[nH]c(=S)[nH]c(=O)c2[C@H](CCc2ccccc2)O1	0	-0.5%	0	-0.4	·	·
COc1ccc(C)c(-n2c(=O)n(Cc3ccccc3)c(=O)c3[nH]cnc32)c1	12	-0.9%	·	-0.8	-1	-19
O=C(NCCCN1CCCC1=O)c1ccc(Cl)c(NS(=O)(=O)c2ccc(F)cc2)c1	25	0.6%	0	-0.9	-11	-5.7

# Main list, from the start:
canonical_smiles	Six1-Eya2 inh	PINK1 expr mod	CtBP-E1A inh	TRPML1 agonist	TRPML1 blocker	D2 ag
CC(C)[C@@H]1Cc2[nH]c(=S)[nH]c(=O)c2[C@H](CCc2ccccc2)O1	0	-0.5%	0	-0.4	·	·
COc1ccc(C)c(-n2c(=O)n(Cc3ccccc3)c(=O)c3[nH]cnc32)c1	12	-0.9%	·	-0.8	-1	-19
O=C(NCCCN1CCCC1=O)c1ccc(Cl)c(NS(=O)(=O)c2ccc(F)cc2)c1	25	0.6%	0	-0.9	-11	-5.7
O=C(CCN=C1NS(=O)(=O)c2ccccc21)Nc1ccc(Cl)cc1F	14	2.8%	7	0.4	-13	4.1
CCOC(=O)NC(=O)CSc1cc(C)c2cc(C)cc(C)c2n1	0	1.2%	-1	2.9	40	-2.2
COCCN(CCOC)C(=O)c1sc2nc(-c3ccccc3)cn2c1C	-1	0.3%	-2	-0.6	-3	-3.2
O=C(COC(=O)/C=C/c1cccc(F)c1)NNC(=O)c1ccccc1	4	-0.5%	-7	1.0	18	5.8
Cc1c(Cl)cccc1NC(=S)NCc1ccc2c(c1)OCO2	-4	0.5%	5	-0.7	6	0.2
CCn1nc(C(=O)Nc2ccc3nc(C)sc3c2)c2ccccc2c1=O	1	-3.1%	1	2.0	-6	2.9
CCC(Oc1ccc(C)cc1)C(=O)Nc1ccc(S(=O)(=O)Nc2cc(C)on2)cc1 (stereo unspecified)	7	1.9%	10	-0.2	-8	0.4
Cc1cc(C)c(C(N)=O)c(Nc2cccc3ccccc23)n1	-4	2.6%	3	2.3	-8	-3.5
CCCN(C(=O)C1CSC2(C)CCC(=O)N12)c1c(N)n(Cc2ccccc2)c(=O)[nH]c1=O (stereo unspecified)	4	1.1%	-1	-1.1	-18	-4.8
COc1ccc(CN(C)C[C@@H]2OCCCC[C@H](C)Oc3ccc(NC(=O)Cc4ccccc4)cc3C(=O)N([C@@H](C)CO)C[C@@H]2C)cc1	-11	3.4%	7	-0.7	3	-1.8
CC(=O)OC(C(=O)NCCN1CCOCC1)c1c(F)cccc1F (stereo unspecified)	13	-1.2%	·	-0.1	1	-7.3
CC1=C(C(=O)Nc2cc(C(=O)N3CCC(C)CC3)ccc2C)SCCO1	-1	-0.6%	-1	0.2	-4	-5.9
Cc1cc(OCC(=O)Nc2ccncc2)ccc1Br	-6	0.3%	3	-0.1	21	-1.5
O=[N+]([O-])c1cccnc1N/N=C/c1ccccc1O	-4	0.3%	-23	0.0	29	-6.1
Cc1cccc(C)c1-n1c(C)cc(/C=N\Nc2ccc([N+](=O)[O-])cn2)c1C	?	2.8%	?	6.8	22	-5.2
Cc1ccccc1CN1CCNC(=O)C1CC(=O)N(C)CCC1CCOCC1 (stereo unspecified)	4	0.0%	7	0.2	4	-2.7
O=C(Nc1ccccc1)c1cc2ccc3ccccc3c2s1	8	9.3%	-3	1.4	4	5.1
C=CCn1c(=O)c2c(nc(Br)n2Cc2ccccc2Cl)n(C)c1=O	-3	0.2%	8	-0.2	26	-1.6
CCc1c(C(=O)NCc2ccccc2Cl)[nH]c(C)c1C(C)=O	-8	1.1%	-9	0.1	-9	-3.8
CCOCCCNC(=O)C(c1ccc(Cl)cc1)N(Cc1cccs1)C(=O)c1ccccn1 (stereo unspecified)	-9	2.6%	13	-0.5	5	-1.4
CCN(Cc1nc(-c2ccc(Cl)cc2)no1)CC1CCCO1 (stereo unspecified)	4	4.0%	4	0.5	16	2.8
CCOc1ccc(N/C(C)=C/C(=O)c2ccc(C)o2)cc1	4	·	5	-0.5	-1	-6.0

# Additional records:
canonical_smiles	Six1-Eya2 inh	PINK1 expr mod	CtBP-E1A inh	TRPML1 agonist	TRPML1 blocker	D2 ag
Cc1nc2ncnn2c(C)c1CCC(=O)N1CCN(Cc2ccccc2)CC1	5	-2.1%	1	2.0	6	-3.0
O=S(=O)(c1ccccc1)c1nc(-c2ccco2)oc1N1CCCCCC1	-14	-0.1%	-8	0.2	2	-2.7
COc1ccc(CCNCC(O)COc2cccc(Br)c2)cc1 (stereo unspecified)	17	-1.1%	1	0.9	-8	-5.2
CC(=O)c1c(C)[nH]c(C(=O)COC(=O)CCCOc2ccccc2)c1C	1	0.8%	1	0.9	14	-2.3
CC(C)NC(=S)Nc1c(N)[nH]c(=O)[nH]c1=O	-7	0.4%	2	1.0	17	0.5
CC(C)(C)OC(=O)N1CCC(c2c(C(=O)O)cnn2-c2ccc(F)cc2F)CC1	·	-0.2%	·	1.7	-4	·
COCCn1c(C)cc(C(=O)CSc2nnc3ccccn23)c1C	13	0.4%	3	-0.5	-8	-6.2
NC(=O)C1=C(c2ccccc2)c2ccccc2C1=O	0	-4.0%	-6	25	-4	-2.0
CCOC(=O)c1cnc(SCC(=O)OCC(=O)N(CC)C2CCS(=O)(=O)C2)nc1N (stereo unspecified)	0	5.2%	4	-0.9	-10	-4.1
Cc1c(NS(=O)(=O)c2cc(C(=O)OCC(=O)N3CCC(C)CC3)ccc2Cl)c(=O)n(-c2ccccc2)n1C	6	0.5%	7	-0.5	11	1.8
Cc1cc(C)n(-c2ccccc2[N+](=O)[O-])n1	6	1.1%	0	0.5	23	-0.2
COc1cccc2cc(C(=O)N(C)C)c(=O)oc12	7	0.0%	0	0.3	-5	-0.7
Cc1ccc(S(=O)(=O)NC(C)C(=O)OCC(=O)Nc2sccc2C(N)=O)cc1 (stereo unspecified)	0	1.5%	5	-0.2	8	-0.5
CCOC(=O)c1sc(S(C)(=O)=O)c2c1CC(C)(C)C/C2=N/O	0	2.0%	6	1.9	-14	-0.8
Cc1cc(OCC(=O)Nc2cc(-c3nn4c(C)nnc4s3)ccc2C)ccc1Cl	20	9.3%	5	0.6	-1	-5.7
COC(=O)[C@H]1C[C@@]2(O)CN(S(=O)(=O)c3ccc(C)cc3)C[C@@]2(OC(=O)NCC2CCCCC2)C[C@H]1C(=O)OC	-1	0.6%	0	0.3	-5	-1.3
CC(C)(C)c1ccc(C(O)c2ncc(-c3ccccc3F)[nH]2)cc1 (stereo unspecified)	-11	?	-4	-0.5	-12	-4.1
Cc1ccc(N2CC(C(N)=O)CC2=O)cc1C (stereo unspecified)	7	-0.5%	1	3.0	-6	1.7
CCN(CC)C(=O)CSc1nc(-c2ccccc2)cc(=O)[nH]1	-4	-1.2%	-25	2.3	-22	-0.6
COc1ccccc1CNS(=O)(=O)c1ccc2c(c1)CC(C)N2C(=O)C1CC1 (stereo unspecified)	-2	0.7%	·	1.6	15	7.3
O=C(Nc1nnc(-c2ccco2)o1)c1ccc(Cl)s1	-2	-0.6%	-10	-0.4	2	-4.5
O=C(CSc1ncn(-c2ccccc2)n1)NCc1ccccc1	-2	0.0%	2	-1.3	14	-1.9
COC(=O)c1ccc(OC)c(CN2CCCN(Cc3cc(C)ccc3C)S2(=O)=O)c1	-16	-1.5%	7	-0.4	20	-2.0
COC(=O)c1ccc(CSc2nc3c(c(=O)n2-c2ccc(C)cc2)SCC3)o1	-3	-0.5%	-1	2.0	3	-1.5
O=C(c1cccc(S(=O)(=O)N2CCCCC2)c1)N1CCCCC1	2	-18%[38.3 µM]	-1	-0.3	7	-1.6

# Full records, looked up by structure. Order of values: Six1-Eya2 inh, PINK1 expr mod, CtBP-E1A inh, TRPML1 agonist, TRPML1 blocker, D2 ag
# `O=S(=O)(c1ccccc1)c1nc(-c2ccco2)oc1N1CCCCCC1` is entered as -14, -0.1%, -8, 0.2, 2, -2.7
# `COCCn1c(C)cc(C(=O)CSc2nnc3ccccn23)c1C` is entered as 13, 0.4%, 3, -0.5, -8, -6.2

# Remaining list, next part
canonical_smiles	Six1-Eya2 inh	PINK1 expr mod	CtBP-E1A inh	TRPML1 agonist	TRPML1 blocker	D2 ag
O=c1cc[nH]c2c1ccc1c(=O)cc[nH]c12	-75*	-0.8%	-86*	-0.4	3	4.8
NC1=NC(=O)C(Cc2cccc(Cl)c2Cl)S1 (stereo unspecified)	-18	-1.4%	2	-0.3	4	2.2
CCOc1ccc(C(=O)Nc2ccc(N3CCN(C(C)=O)CC3)cc2)cc1[N+](=O)[O-]	6	2.1%	·	0.3	18	-3.9
O=C1NC2(CCCCC2)C(=O)N1Cc1ccc([N+](=O)[O-])cc1	-4	-0.6%	?	-0.3	0	-2.6
COC(=O)[C@@H]1C[C@@]2(Br)c3ccccc3N(S(=O)(=O)c3ccccc3)[C@H]2N1C(=O)OC	-5	3.4%	0	-0.4	19	-4.4
CCCC(=O)NCCc1ccc(S(N)(=O)=O)cc1	1	2.9%	5	0.6	1	-2.8
O=C(Nc1ccc(Br)cc1)C1CCCN(S(=O)(=O)c2cccnc2)C1 (stereo unspecified)	-1	0.1%	1	0.4	-15	1.8
CC(=O)Nc1ccc2oc(-c3ccccc3Br)nc2c1	-8	-0.8%	-3	0.2	-7	-1.8
Cc1nn(C)c(=O)n1-c1ccc(Oc2ccccc2)cc1	9	-2.0%	12	-1.0	24	-0.3
Cc1ccc(OCC(=O)Nc2cccc3nsnc23)c(C)c1	19	9.6%	12	-1.1	14	4.0
O=C1Nc2ccccc2C1Cc1ccc(OC(F)(F)F)cc1 (stereo unspecified)	3	4.9%	·	4.9	-7	2.8
Cc1nc(C)c(-c2csc(N)n2)s1	-13	1.0%	-1	-1.3	-8	-0.1
CCc1ccccc1-n1c2c(cc(-c3nc(-c4ccc(Cl)cc4)cs3)c1=O)C(=O)CC(C)(C)C2	·	1.1%	·	0.4	9	·
Cc1cccc(NC(=O)c2cnn3ccccc23)c1C	-1	-0.6%	2	·	·	-7.4
CC(C)[C@@H]1COC(c2cccc(C3=N[C@H](C(C)C)CO3)n2)=N1	2	0.1%	2	-0.8	20	0.5
C=CCNC(=O)c1c(Br)cnn1-c1ccc(C)cc1	-1	-0.8%	15	1.7	0	4.7

# As entered above:
# In TRPML1 blocker, `CCOc1ccc(C(=O)Nc2ccc(N3CCN(C(C)=O)CC3)cc2)cc1[N+](=O)[O-]` has 18
# In Six1-Eya2 inh, `C=CCNC(=O)c1c(Br)cnn1-c1ccc(C)cc1` has -1
# In TRPML1 agonist, `CCCC(=O)NCCc1ccc(S(N)(=O)=O)cc1` has 0.6
# In Six1-Eya2 inh, `Cc1cccc(NC(=O)c2cnn3ccccc23)c1C` has -1
# In PINK1 expr mod, `O=c1cc[nH]c2c1ccc1c(=O)cc[nH]c12` has -0.8%

# An unsorted share of the library; any-hit rate near 1%.
